High-throughput results (PubChem BioAssay)
CSC inhib = cancer stem cell viability inhibitors, primary screen, luminescence | cancer stem cell-like cells viability | inhibition, % at 7.5 µM | 1.1% of 300,000 active;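 active = mean at 75% or more and at least half the replicates too; tested in HMLE shEcad cells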;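 also: 0% = median of negative and 100% = median of positive control wells; the first replicate is given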
PABP polyA inh = PABP poly(A) RNA binding inhibitors, primary screen, biochemical, fluorescence polarization, uHTS. AID 2014, 2009. Polyadenylate-binding protein 1 (Homo sapiens), P11940. inhibition, % at 35 µM. 1% of 290,000 active;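 active = 50% or more with normal probe brightness, or confirmed in later tests; about a fifth of its hits are not listed in these tables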;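 also: calls also rest on retests at 20 µM and on dose response follow-up; controls were probe without protein and protein plus probe with vehicle; some compounds called inactive have numbers as strong as hits; many hits fall short of the cut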
eIF4H FP inh = human eIF4H binding inhibitors, primary screen, translation initiation inhibitor project, biochemical, uHTS, fluorescence polarization | Eukaryotic translation initiation factor 4H (Homo sapiens), Q15056 | eIF4H fluorescence polarization binding assay | inhibition, % at 35 µM | 0.94% of 290,000 active | AID 2012, 2009;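 active = 50% or more with normal probe brightness, or confirmed in later tests; about a fifth of its hits are not listed in these tables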;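 also: calls also rest on retests at 20 µM and on dose response follow-up; 0% = protein and probe with vehicle and 100% = probe without protein; strong numbers were not always called active; many hits fall short of the cut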
Rce1 inh = yeast Rce1p protease inhibitors, primary screen, biochemical, fluorescence, cell-free homogeneous. yeast membranes, quenched prenylated peptide cleavage fluorescence. CAAX prenyl protease 2 (Saccharomyces cerevisiae (strain ATCC 204508 / S288c)), Q03530. 0.27% of 290,000 active. AID 2563, 2010. calls only;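 active = fall in fluorescence gain of 50% or more versus controls, with final raw signal at or below 3038400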;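 also: plate controls were neutral control wells for no effect and wells lacking membranes for full effect; tested at 10 µM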
Target sequence (Q03530 whole entry, looked up): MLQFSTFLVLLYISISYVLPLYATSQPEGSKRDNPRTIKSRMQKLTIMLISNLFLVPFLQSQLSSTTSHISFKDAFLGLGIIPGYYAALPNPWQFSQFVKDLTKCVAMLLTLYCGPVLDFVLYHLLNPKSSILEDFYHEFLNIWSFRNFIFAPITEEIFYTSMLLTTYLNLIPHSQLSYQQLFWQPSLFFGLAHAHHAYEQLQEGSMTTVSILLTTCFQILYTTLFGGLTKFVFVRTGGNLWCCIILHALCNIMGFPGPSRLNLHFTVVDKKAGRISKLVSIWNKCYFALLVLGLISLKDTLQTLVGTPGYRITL
MT1-MMP act inh = blockers of MT1-MMP proenzyme processing, primary screen, HT1080 RFP-PRO-GFP cells, GFP/RFP fluorescence; Matrix metalloproteinase-14 (Homo sapiens), P50281; GFP/RFP ratio fluorescence, overnight; percent of plate control window, DMSO zero; GFP/RFP ratio change, % at 20 µM; 0.061% of 360,000 active; AID 651647, 2012;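 active = GFP/RFP ratio change of at least 30% with cell ATP level not reduced by more than half and red fluorescence within 50% of control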; also: strong numbers were not always called active
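Material: RFP-PRO-GFP reporter HT1080 cells. Dosing: single-point 20 µM compound, 1% DMSO. Controls: DMSO and RFP-L50D-GFP cell wells. Timing: cells overnight before dosing, compound overnight, 37 °C, 5% CO2. Measure: GFP/RFP fluorescence ratio.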
Env fusion inh = inhibitors of HIV-1 Env-driven cell-cell fusion, primary screen, HeLa-JRFL effector, CEM21 target cells, luciferase | inhibition, % at 12.3 µM | AID 651610, 2012 | 1.1% of 360,000 active;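 active = mean replicate inhibition score of at least 50 and every replicate individually at or above 50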;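 also: 0% = plate neutral controls and 100% = maraviroc near 300 nM; one replicate is shown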
Yeast UUG start = modulators of yeast start codon fidelity, primary screen, whole organism, S. cerevisiae, single point, plate reader; S. cerevisiae UUG-firefly luciferase reporter, luminescence/redox ratio; activity score, % at 18.7 µM; 0.13% of 350,000 active; AID 602363, 2012;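 active = replicate mean at a twofold rise or more, about +100% in these data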;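 also: firefly luciferase made from a UUG start codon reports start codon fidelity; reporter light over untreated wells divided by growth signal over untreated wells; some hits fall short of that in this replicate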
MT1-MMP act inh RFP = further read-out of MT1-MMP act inh, marked with its call; RFP signal change, %; measured here: RFP expression control read;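 0 = vehicle wells; hits needed this value within 50% of zero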
An asterisk follows results filed as active; i = inactive; nt = not tested or not shown. The list is partial; rates above refer to the full screens.

SMILES	CSC inhib	PABP polyA inh	eIF4H FP inh	Rce1 inh	MT1-MMP act inh	MT1-MMP act inh RFP	Env fusion inh	Yeast UUG start
COc1ccc(N2C(=O)C3C4C=CC(C4)C3C2=O)c(OC)c1 (stereo not drawn)	-2	-13	-3	i	0	3	11	nt
CCOc1cc(Br)c(COc2ccc(C)nc2[N+](=O)[O-])cc1OCC	2	2	-5	i	2	0	-7	2
COc1ccc(OC)c(N2C(=O)CCCC2=O)c1	8	7	-6	i	1	0	-22	-8
Cc1c(N=C2N=C(NC(=O)NC(C)(C)C)c3ccccc32)c(=O)n(-c2ccccc2)n1C	-18	0	-13	i	-8	-4	21	nt
O=C(N/N=C/c1ccc(Br)cc1)c1ccc(F)cc1	0	-11	-14	i	2	0	-9	-7
O=C(Nc1ccc(NC(=O)c2cccs2)cc1)c1ccc2c(c1)OCO2	1	3	-2	i	0	-1	-14	-1
Cc1noc(C)c1COc1ccc(C(=O)NCc2ccccn2)cc1	21	7	2	i	-2	4	-40	-7
Cc1cc(Cl)ccc1OC(C)C(=O)NN1C(=O)c2ccccc2C1=O (stereo not drawn)	-18	6	7	i	2	5	-10	-3
CCN(CC)CCN1C(=O)C(=O)/C(=C(/O)c2ccc(C)cc2)C1c1ccncc1 (stereo not drawn)	nt	-5	-8	i	nt	nt	nt	nt
CN(Cc1ccccc1)C(=O)c1cc2cc(F)ccc2[nH]1	6	6	-6	i	1	-1	18	-12
O=C(Cc1cc(=O)oc2cc(O)ccc12)N[C@@H](Cc1c[nH]c2ccccc12)C(=O)O	-6	5	-2	i	-1	2	-3	1
CCOC(=O)C1=C(COC(=O)Cc2ccccc2)NC(=O)NC1C (stereo not drawn)	nt	0	-2	i	-1	-1	-3	-19
O=C(Nc1cnns1)Oc1ccccc1	nt	nt	nt	nt	-3	1	2	-14
O=C(Nc1ccc(F)cc1)C1(S(=O)(=O)c2ccc(Cl)cc2)CC1	2	6	-16	nt	1	-1	12	-11
CC1CC(C)CN(c2ncc3c(n2)CC(c2ccccc2)CC3=O)C1 (stereo not drawn)	49	-5	-5	i	-2	1	nt	-9
O=C1OC(Sc2ccccc2)(c2ccccc2)c2ccccc21 (stereo not drawn)	nt	nt	nt	nt	-6	-4	24	-18
CCc1ccc(-c2csc(NC(=O)C3CCCO3)c2C(=O)OC(C)C)cc1 (stereo not drawn)	71	-11	6	i	nt	nt	-3	-12
COc1ccc(-n2c(SCC#N)nc3c(sc(=S)n3-c3ccccc3)c2=O)c(OC)c1	nt	6	-3	i	2	-2	8	-9
CCOc1ccc(N(Cc2nnc3n2CCCCC3)C(=O)Nc2cccc(C)c2)cc1	-10	-6	1	i	8	5	-1	-15
NS(=O)(=O)c1ccc(Nc2nc(-c3cccc([N+](=O)[O-])c3)cs2)cc1	-2	-1	-8	i	3	-13	8	-2
CCCCCCCCCn1ccc(=N)cc1	7	-7	0	i	-10	-38	79*	2
COC(=O)c1ccc2ncccc2c1	-4	3	0	i	1	1	-39	nt
CCOc1ccccc1C(=O)NCc1ccc2c(c1)OCO2	8	-1	-2	i	-7	-7	nt	-8
O=C(O)CC(C(=O)OCCOc1ccccc1)N1CCOCC1 (stereo not drawn)	nt	4	-6	nt	5	7	-14	-6
Cc1cc([N+](=O)[O-])ccc1NC(=O)CN1C2CCC1CC(NC(=O)NC13CC4CC(CC(C4)C1)C3)C2 (stereo not drawn)	6	6	-6	i	-1	-25	10	8
CCCn1c(C(C)Nc2nc(-c3ccc(Cl)c([N+](=O)[O-])c3)cs2)nc2ccccc21 (stereo not drawn)	-14	0	-1	i	-4	-3	-11	2
Nc1c(-c2nn[nH]n2)cnn1-c1cc(Cl)cc(Cl)c1	-4	-2	-7	i	0	2	2	-9
COc1ccc(C(CNC(=O)COc2ccc(Cl)c(C)c2)N2CCCCC2)cc1 (stereo not drawn)	nt	2	2	i	1	-2	12	-6
COc1ccc(S(=O)(=O)N(C)C)cc1NC(=O)c1ccc2c(c1)NC(=O)C(C)S2 (stereo not drawn)	-5	nt	nt	nt	-1	-1	nt	-24
Cc1ccc(C(=O)NC(=S)N2CCN(C)CC2)cc1	-12	-6	0	nt	2	7	-11	-20
CCc1ccccc1NC(=O)CNC(=O)CNC(=O)Cc1ccccc1	nt	nt	nt	nt	1	-2	-16	-3
O=C(COC(=O)c1ccc(S(=O)(=O)N2CCCCCC2)cc1)NCc1ccc(Cl)cc1	-24	nt	nt	nt	-4	-1	-5	3
COc1ccc(NC(=O)C2CCCN(S(C)(=O)=O)C2)cc1Cl (stereo not drawn)	-4	4	-4	i	1	3	4	7
COc1cccc(NC(=O)c2cc3cccc(OC)c3o/c2=N\O)c1	33	-5	3	i	nt	nt	nt	nt
N#Cc1cn(CCOc2ccc(F)cc2)c2ccccc12	-10	-2	5	i	4	-1	nt	-15
CCCc1cc(=O)n(-c2nc3ccccc3s2)[nH]1	140*	14	20	i	4	9	-4	-15
O=C(COC(=O)Cc1ccsc1)Nc1ccc(S(=O)(=O)N2CCOCC2)cc1	-15	-16	-7	nt	0	1	2	nt
O=C(c1cc2c(ccc3ccccc32)o1)N1CCCCC1	-7	4	-11	i	-2	-3	-240	-9
CCOc1ccc(NC(=O)CNC(=O)c2ccc(OC)cc2)cc1	-17	-1	-2	i	-4	-2	-24	nt
Cc1ccc(NC(=O)Cn2c([N+](=O)[O-])cnc2C)cc1Cl	-8	14	0	i	5	-2	-8	-8
CCOc1ccccc1N1CCN(C2=C(NS(=O)(=O)c3cccs3)C(=O)c3ccccc3C2=O)CC1	35	20	4	i	2	-10	nt	-10
CC1(O)N(CCC(=O)Nc2cccc(F)c2)C(=O)OC12CCCCC2 (stereo not drawn)	-10	-18	0	i	-2	1	5	nt
CCOC(=O)C1CCN(C(=O)c2ccc(Oc3cc(Cl)cc(Cl)c3)o2)CC1	-16	-4	-6	i	0	0	-3	7
CC(OCC(O)CN(C)CCOc1ccccc1)c1ccc(Cl)cc1 (stereo not drawn)	nt	3	2	i	2	3	-29	-7
O=C(O)CCCN=CC1=C(O)C(C(=O)c2ccccc2)CCC1=O (stereo not drawn)	-21	-3	1	i	3	7	nt	-13
O=C(NCc1cccc(Cl)c1)c1cc(COc2ccc3ncccc3c2)on1	27	3	-3	i	-15	-35	36	nt
CCCCc1nc2c(C)c(N)cnc2n1Cc1cccc([N+](=O)[O-])c1	16	-5	-13	i	1	0	-17	-16
C=CCN=C1NN=C(c2cc(C)n(CCOC)c2C)CS1	-8	3	30	i	-3	0	75*	nt
COc1cccc(NC(=O)CCCn2nc(C)c3c(C)n(-c4ccccc4)nc3c2=O)c1	-11	1	-5	i	1	-4	4	-17
CCN(CC1CCCN(CCc2cccc(OC)c2)C1)C(=O)C=C(C)C (stereo not drawn)	-7	10	-1	i	-2	-1	5	-15
CCn1c(CNC(C)=O)nnc1SCC(=O)c1ccc(Br)cc1	-7	-10	-6	i	-5	0	nt	-20
COc1cc(Cl)ccc1OCc1cc(C(=O)N2CCCCC2c2cccnc2)no1 (stereo not drawn)	-3	-5	-14	i	-3	-5	3	-32
C=C(C)CN(CC)C(=O)COc1ccc(S(=O)(=O)Nc2ccc(OC)cc2)cc1	14	-11	-12	i	0	-5	-10	0
COc1ccc2oc(=O)cc(CN3CCN(Cc4ccc(OC)c(OC)c4OC)CC3)c2c1	-3	-1	4	i	-2	-1	9	0
CC1(c2ccccc2Cl)NC(=O)N(CC(=O)N2c3ccccc3NC(=O)C2(C)C)C1=O (stereo not drawn)	nt	nt	nt	nt	-1	2	3	-38
CC(C)c1ccc2c(c1)C(c1cccs1)=NNC(c1ccncc1)=N2	-3	1	4	i	-7	-12	19	nt
Fc1ccc2cnc(-c3ccccc3F)cc2c1	7	nt	nt	nt	-5	-1	-113	-26
Cc1cccc(C(=O)OCC(=O)N2CCCC2=O)c1O	nt	nt	nt	nt	-3	2	27	4
Cc1ccc(C)c(N(CC(=O)NC2CCCC2)C(=O)CCC(=O)Nc2cc(C)on2)c1	-9	2	3	i	-1	0	3	-2
N#CCCN(Cc1ccccc1)C(=S)NC(=O)c1ccccc1	6	-10	-11	i	8	6	-18	-30

The results go on:
SMILES	CSC inhib	PABP polyA inh	eIF4H FP inh	Rce1 inh	MT1-MMP act inh	MT1-MMP act inh RFP	Env fusion inh	Yeast UUG start
C=CCn1c(=O)c(C(=O)Nc2ccc(C)cc2)c(O)c2ccccc21	-13	10	-3	i	3	-5	-1	-29
CCOc1ccc(NC(=O)CSc2nnc(-c3cc(C)[nH]n3)n2N)cc1	-8	2	-7	i	3	2	-9	-25
COc1cc(/C=N\NC(=O)C(C)(C)O)ccc1OC/C=C/c1ccccc1	21	-8	-12	i	-1	2	-7	-1
COc1ccc(N2CCN(C(=O)Nc3ccc(S(=O)(=O)N(C)C)cc3)CC2)cc1	-9	4	1	i	-7	-1	3	6
Cc1ccc(/C=N/Nc2cccc3cccnc23)c(O)c1	nt	-10	-1	i	1	4	nt	-49
CCCc1ccc(C(O)c2ncc(-c3ccccc3C)[nH]2)cc1 (stereo not drawn)	nt	nt	nt	nt	2	1	1	-5
O=c1oc2ccccc2n1Cc1cccc(F)c1	-1	8	21	i	-7	2	-10	-15
O=C(CCN1CCOCC1)NNC(=O)Nc1cccc(C(F)(F)F)c1	-17	2	-2	i	2	5	32	-16
NC(=O)c1cc(S(=O)(=O)NCCc2ccc(Cl)cc2)cs1	-13	1	-8	i	3	0	-12	20
CCN1CC(CN(C)Cc2nc(-c3cccs3)no2)CC1=O (stereo not drawn)	6	-2	2	i	2	-3	-8	-9
O=C1CCCN1c1ccc(S(=O)(=O)Oc2cccc(Cl)c2)cc1[N+](=O)[O-]	19	0	-8	i	-3	-10	nt	-21
CN(C)C(/C=C/Nc1ccc(Br)cc1)=C(C#N)C#N	-21	5	5	nt	-3	2	-10	nt
O=C1COc2ccc(C(=O)NCc3ccc4c(c3)OCO4)cc2N1	-2	-4	-9	i	1	-3	-42	-9
COc1cc2c(cc1OC)C1=NC(=O)CN1C(SCc1ccc(C)cc1)=N2	3	9	5	i	6	-4	nt	nt
NC1=NOC(=O)C1C1CCCCC1 (stereo not drawn)	nt	nt	nt	nt	3	-3	-45	0

A few values from the results shown.
MT1-MMP act inh with Cc1ccc(/C=N/Nc2cccc3cccnc23)c(O)c1 : 1
Env fusion inh with CCN1CC(CN(C)Cc2nc(-c3cccs3)no2)CC1=O (stereo not drawn) : -8

(next part)
SMILES	CSC inhib	PABP polyA inh	eIF4H FP inh	Rce1 inh	MT1-MMP act inh	MT1-MMP act inh RFP	Env fusion inh	Yeast UUG start
Cc1ccc(C)c(NC(=O)CN(C)C(=O)c2ccncc2)c1	-13	-4	-10	i	0	8	0	-16
CC(C)CCn1nnnc1C(c1ccccc1F)N1CCC(C(N)=O)CC1 (stereo not drawn)	-2	-2	4	i	-10	-1	-59	3
NS(=O)(=O)c1cc(C(=O)NCCOc2ccccc2)c(Cl)cc1Cl	10	1	-1	i	12	6	-29	-8
Cc1cc(C)nc(NC(=O)c2ccc3c(c2)OCO3)c1	0	-8	-1	i	nt	nt	nt	nt
O=C(Nc1ccc2c(c1)OCO2)c1cc(C2CCCCN2S(=O)(=O)Cc2ccccc2)on1 (stereo not drawn)	nt	nt	nt	nt	2	-6	-64	-10
CCOC(=O)c1nnn2c1nc(N1CCCCC1)c1ccccc12	9	-3	-3	i	-2	-4	10	nt
COc1cc(N2CCCC2)c(OC)cc1C=O	-16	2	-6	i	2	1	-14	nt
